TRPV1 PAM = potentiators of human vanilloid receptor 1 (TRPV1); potentiation, % at 8.33 µM; TRPV1-expressing cells, Fluo-8 calcium influx, capsaicin EC20 potentiation; host cell line not named in the record; control for the full effect not named in the record; Q8NER1; actives 0.02% (n = 320,000); active means potentiation above 80%; inconclusive means 30% to 80%; inactive means below 30%; also: 0% is about no effect
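TRPV1-expressing cells were cultured overnight at 35.5C and loaded with Fluo-8 calcium dye for 40 to 90 min at room temperature. After a 10 s baseline, compound was added and calcium influx was read kinetically for 3 min (ex 480/em 520 nm).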
TRPML1 ag = human mucolipin-1 channel agonism. activation, % (concentration not given with the values). actives 0.12% (n = 410,000). TRPML1-expressing cells, Ca2+ dye fluorescence, FDSS; host cell line not named in the record; reference of the full effect not given here. AID 624414; in the data active = activation above about 50%; inconclusive = about 30% to 50%; inactive = below about 30%; also: 0% is about no effect; the text of the record puts the active cut at 80%
Target sequence (Q9GZU1 whole entry, looked up): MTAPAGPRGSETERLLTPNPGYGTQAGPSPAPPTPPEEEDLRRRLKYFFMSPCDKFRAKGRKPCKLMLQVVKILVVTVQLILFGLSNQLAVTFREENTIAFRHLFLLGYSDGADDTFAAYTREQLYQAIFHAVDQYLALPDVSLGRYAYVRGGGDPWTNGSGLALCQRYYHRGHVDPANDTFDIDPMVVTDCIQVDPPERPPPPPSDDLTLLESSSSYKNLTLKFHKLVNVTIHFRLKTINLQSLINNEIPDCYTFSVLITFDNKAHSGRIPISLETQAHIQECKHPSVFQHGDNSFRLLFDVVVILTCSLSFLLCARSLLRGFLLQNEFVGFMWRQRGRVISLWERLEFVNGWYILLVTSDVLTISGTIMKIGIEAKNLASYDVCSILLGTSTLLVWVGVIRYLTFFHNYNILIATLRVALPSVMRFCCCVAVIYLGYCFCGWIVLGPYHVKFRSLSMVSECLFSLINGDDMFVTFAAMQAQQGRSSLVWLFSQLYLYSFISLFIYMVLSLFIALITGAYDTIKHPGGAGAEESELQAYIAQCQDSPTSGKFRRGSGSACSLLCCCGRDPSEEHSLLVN
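TRPML1-DL cells, Tet-induced overnight (~16 h, 37 degrees C), loaded 45-90 min at room temperature with Ca8 no-wash calcium dye plus quencher. FDSS fluorescence: 10 s baseline, compound pin-transfer, 110 s agonist read, then EC80 54-4 (4uM final) and 110 s antagonist read.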
TRPML1 blocker = blocks the human TRPML1 channel; AID 624415; TRPML1-inducible cells, Ca2+ dye fluorescence, FDSS; stronger effect = lower value; inhibition of EC80 agonist-evoked calcium signal; activity change, negative = inhibition, % (no concentration beside the values); Q9GZU1; actives 0.02% (n = 390,000); in the data active means activity change below about -50%; inconclusive means about -30% to -50%; inactive means above about -30%;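 also: stimulus is agonist 54-4 at its EC80 concentration; % is scaled to controls: 0 for no effect and ±100 for the full control effect; compound concentration not given in the record; the text of the record puts the active cut at -80%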
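TRPML1-DL cells, Tet-induced overnight (~16 h, 37 °C) at 1,500 cells/well, were loaded with Ca8 no-wash dye plus quencher for 45-90 min at room temperature. Compounds were pinned during FDSS kinetic reading; agonist 54-4 at EC80 (4 uM final) then added.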
Menin MLL FP FL = displaces fluorescein MLL peptide from human menin | 290,000 tested, under 10 active | FP activity change, % at 61.4 µM | Fluorescence polarization, fluorescein-MLL peptide displacement from menin | AID 1766; inconclusive = falling polarisation curve, or a change in total fluorescence; inactive = total fluorescence flat and polarisation flat or rising; no compound was filed as active; the % refers to the polarisation; negative = inhibition;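 also: % of control where 0% means no effect; inhibitors lower the polarisation; unlabelled MLL peptide was the positive control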
ClpP mod = qHTS Assay for Activators of ClpP | ATP-dependent Clp protease proteolytic subunit (Bacillus subtilis (strain 168)), P80244 | purified B. subtilis ClpP, FRET peptide cleavage, 20 min | Potency, µM (doses to about 57.5 µM), for the others: at the top dose activity change, negative = active | actives 1.9% (n = 340,000) | AID 651965, 2013; active = well fitted falling curve with a large enough effect; inconclusive = small, poorly fitted or top-dose-only effect; inactive = no such curve, though single readings can be large or run the other way; also: potency is read from the fitted curve at half-maximal effect; the source files actives as falling curves though it sought activators and does not explain the sign; nearly all actives have a fitted effect of over 65% in size; many hits overshoot -100%
Target sequence (P80244 whole entry, looked up): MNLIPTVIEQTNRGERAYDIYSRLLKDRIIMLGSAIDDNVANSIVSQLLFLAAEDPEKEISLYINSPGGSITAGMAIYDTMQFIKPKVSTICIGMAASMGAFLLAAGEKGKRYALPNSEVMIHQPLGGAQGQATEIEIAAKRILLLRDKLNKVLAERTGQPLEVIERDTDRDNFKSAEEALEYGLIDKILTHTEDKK
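ClpP 10 microg/mL final, pH 8 Tris/KCl buffer with BSA, glycerol, Tween-20; compound pinned in; FRET-FV substrate; RT 20 min; Ex320/Em430; ΔFRET vs ADEP 5.8 microM, DMSO, no enzyme.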
PINK1 expr mod = PINK1 expression modulation; Potency, µM (top dose mostly 76.6 µM), for the others: at the top dose activation (PINK1 increase), hits mostly activators; actives 0.2% (n = 410,000); PINK1 immunofluorescence, high-content cytometry, 24 h; active = well fitted activation curve with a large enough effect; inconclusive = small, poorly fitted or top-dose-only effect; inactive = flat fitted curve, though single readings scatter; cell line not stated here;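 also: potency is read from the fitted curve at half-maximal effect; % of control where 0% means no effect; nearly all actives have a fitted effect of over 65% in size; a mitochondrial uncoupler was the plate control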
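Measures PINK1 amount and localization on or inside mitochondria by immunofluorescence. Stable cells get compounds at 5 concentrations for 24 hours before fixation and staining; CCCP controls included.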
Sfp PPTase inh = Sfp phosphopantetheinyl transferase inhibition | Q9F4F7 | Potency, µM, for inactives: max response, negative = inhibition, usual class: inhibitors | actives 3.5% (n = 310,000) | AID 1490 | Biochemical Sfp PPTase activity, qHTS; active = well fitted inhibition curve with a large enough effect; inconclusive = small, poorly fitted or top-dose-only effect, or another doubt; inactive = no such curve, though single readings can be large or run the other way;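 also: the enzyme is Sfp with the accession as filed and its product quenches rhodamine fluorescence; potency is read from the fitted curve at half-maximal effect; 0% = enzyme reaction without inhibitor and -100% = no enzyme wells; top concentration of the series not given in the record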
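Reaction rates are the 30-min fluorescence difference (ex 525, em 598 nm) in wells containing 15 nM Sfp, 5 uM rhodamine-CoA and 12.5 uM BHQ-2-YbbR at pH 7.6 with 10 mM MgCl2.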
Numbers without * were called inactive; ? = inconclusive; · = no result given; & = joins results of further samples; [ ] = remark or other dose.

SMILES	TRPV1 PAM	TRPML1 ag	TRPML1 blocker	Menin MLL FP FL	ClpP mod	PINK1 expr mod	Sfp PPTase inh
O=C(Cn1nc(-c2ccccc2)ccc1=O)Nc1ccc(N2CCN(C(=O)c3ccccc3)CC2)cc1	3.5	0.6	-12.1	4.1	0.8%	2.5%[38.3 µM]	-6.8%
COCCNC(=O)C1(C)CCCN(C(=O)c2cccc(C#N)c2)C1 (stereo not given)	·	-0.3	·	·	0.6%	0.7%	·
NC(=O)Nc1ccc(/C=C/c2ccnc3ccccc23)cc1	·	0.0	·	·	-16.4%	-0.4%	·
COc1ccc(N2CCN(C3CCCN(S(=O)(=O)c4ccccc4)C3)CC2)cc1 (stereo not given)	0.0	0.5	59.8	·	-7.6%	0.2%	3.4%
O=C(c1cc(-c2cccc(O)c2)on1)N1CCN(C(c2ccccc2)c2ccccc2)CC1	9.8	0.8	-12.2	0.8	-11.4%	-0.9%	18.5%
COC(=O)c1nc(NC(=O)c2cc(OC)c(OC)c(OC)c2)n[nH]1	11.1	-0.7	-2.7	·	·	6.4%	-20.3%
Nc1c(C(=O)CSc2nccn2-c2ccc(Cl)cc2)c(=O)[nH]c(=O)n1C1CC1	4.5	-0.5	-0.2	·	-1.2%	3.6%	·
O=C(O)C1CC(c2cccc(Br)c2)=NO1 (stereo not given)	-11.6	-0.1	-5.7	0.1	-3.1%	0.8%[38.3 µM]	8.0%
CC(C)(C)c1nc2ccc(NS(=O)(=O)c3ccc(F)c(F)c3F)cc2[nH]1	?	-0.6	-7.2	-2.5	·	2.5%	-11.9%
O=C(Nc1cnn(Cc2ccc(Cl)cc2)c1)C1CCCC1	11.8	0.1	14.2	-1.5	-1.6%	7.2%[38.3 µM]	-1.4%
Clc1ccc(-c2cn3c(n2)-c2ccccc2C3)cc1Cl	-3.3	-0.8	-7.3	4.5	-3.4%	0.8%	9.9%
Cc1cc(-c2cc(C(=O)Nc3ccccc3)on2)nc(NCC2CC2)n1	·	-0.1	-0.2	·	?	2.5%	·
COc1ccc(C=CC(=O)c2ccc(OC)c(OC)c2)cc1O	·	0.2	-3.0	·	-2.0%	-1.3%	·
CCc1ccccc1N(CC(=O)NCc1ccco1)C(=O)c1snc(C(N)=O)c1N	-4.5	-0.8	10.3	2.7	?	-1.4%	-9.9%
O=C(C1CCCN(S(=O)(=O)c2ccc(F)cc2)C1)N1CCCC1 (stereo not given)	-13.0	-0.4	-6.4	1.6	-0.7%	-0.8%	9.2%
O=C(NNC(=O)[C@H]1CC=CC[C@H]1C(=O)O)c1ccc(Cl)cc1Cl	-8.4	-0.6	25.3	0.7	·	-1.2%	10.6%
O=C1C2CCC(C2)C1CN1CCOCC1 (stereo not given)	·	-0.3	-0.8	·	·	-1.2%	·
N/C(COc1ccc(Cl)cc1Cl)=N\NS(=O)(=O)c1ccccc1	3.7	0.0	7.6	0.3	-0.2%	-2.4%	16.1%
CCN1CCN(c2ccc(S(=O)(=O)N3CCOCC3)cc2NC(=O)CC(NC(C)=O)c2ccccc2)CC1 (stereo not given)	·	1.1	-13.5	·	-2.3%	1.4%	·
CC1=CC(C)=Nc2ccc(C)cc2N1	-2.9&-5.8	-0.1&-0.2	-2.9&-5.0	1.7&0.1	-3.7%&-4.1%	0.4%	15.2%&4.8%
CCN(CC)S(=O)(=O)c1cc(NC(=O)CSCc2c(C)noc2C)ccc1C	·	-0.4	-6.9	·	·	-0.8%	·
Cc1cc2ncn(CC(C)C)c2cc1C	-7.1	-0.8	12.8	-1.3	·	0.6%	17.7%
OC(COc1ccccc1)CN1CCCCC1 (stereo not given)	·	-0.5	4.0	·	31.6µM*	-3.6%	·
O=C(C1CCCC1)N1CCC(CC2CC(c3ccc(Cl)cc3)=NO2)(C(=O)NCC2CCCCC2)CC1 (stereo not given)	-8.7	-0.8	25.4	2.9	0.1%	5.6%	8.4%
COc1ccc(C2c3[nH]c4ccccc4c3CCN2Cc2ccoc2)c(F)c1 (stereo not given)	0.3	1.0	-0.6	-1.2	-20.5%	2.4%	5.3%
O=c1c(-c2nnc(SCc3ccc(Cl)cc3Cl)o2)cccn1Cc1ccccc1	·	-0.3	-9.4	-1.9	3.16µM*	-2.7%	3.6%
COc1ccc(/C=C/c2nnc(NC(=O)c3ccco3)s2)cc1	6.7	-1.0	2.8	1.5	?	6.9%	2.5%
O=C(Cn1nnc(-c2ccc(S(=O)(=O)N3CCCC3)cc2)n1)NCC1CCCO1 (stereo not given)	1.0	0.7	-9.8	-1.6	-0.1%	?	-0.1%
O=C(/C=C/c1ccccc1)NC(=S)NNC(=O)c1cnccn1	16.0	0.4	-4.0	1.6	·	-1.3%	20.2%
O=C(CCC(=O)N(CC(=O)NC1CCCCC1)c1ccc2c(c1)OCCO2)Nc1ccccn1	6.1	·	·	-2.2	·	·	20.1%
O=C(NCCC(=O)N1CCc2ccccc21)c1ccco1	19.4	-0.6	-4.1	1.7	·	-1.3%	4.1%
Cc1ccc(C)c(NC(=O)CCC(=O)NNC(=O)c2cccc([N+](=O)[O-])c2)c1	-5.4	0.6	11.5	5.9	-0.1%	27.7%[38.3 µM]	17.4%
CC(C)CN(C(=O)COc1ccc2ccc(=O)oc2c1)C1CCS(=O)(=O)C1 (stereo not given)	-17.8	0.5	0.2	·	3.9%	0.7%	8.6%
COc1ccccc1S(=O)Cc1ccc(C(=O)NC2CCCC2)o1 (stereo not given)	6.3	-0.6	-13.5	1.3	1.1%	3.0%	-20.9%
Cc1cc2[nH]c3ccccc3c2c(C)n1	-0.2	1.0	4.8	-0.5	28.2µM*	-1.3%	2.9%
O=C(c1cccnc1Cl)N(Cc1ccccc1)Cc1ccccc1	-8.1	-0.9	7.4	0.0	·	2.4%	5.0%
CCOC(=O)c1c(S(=O)(=O)N2CCCC(C(=O)NCc3cccc(C)c3)C2)c(C)n(C)c1C (stereo not given)	·	-0.2	-19.7	·	-0.2%	2.0%	·
CCC(C)C(=O)Nn1c(C2CC2)nc2cc(OC)c(OC)cc2c1=O (stereo not given)	5.5	0.0	-7.5	-4.9	-6.4%	-0.3%	16.8%
CCC(=O)Nc1ccc(C(=O)Nc2ccc3c(c2)C(=O)N(CC2CCCO2)C3=O)cc1 (stereo not given)	5.2	-0.4	-23.0	0.6	40.7%	6.2%	21.7%
CC/C(=N\Nc1ccccc1[N+](=O)[O-])c1ccc(O)cc1	9.3	1.3	6.8	5.6	·	3.8%	?
CC1CCCN(C(=O)N2c3ccccc3Sc3ccccc32)C1 (stereo not given)	6.0	2.1	-6.2	1.1	-1.0%	4.3%[38.3 µM]	-6.8%
Cc1ccccc1-c1nnn(CC(=O)c2ccc(S(=O)(=O)N3CCCC3)cc2)n1	-4.6	0.3	16.3	7.5	-1.5%	-1.8%	9.9%
COc1cc(OC)cc(OC(=O)C2CCN(C(=O)c3ccc(F)cc3)CC2)c1	-0.1	-0.4	-11.1	·	-1.9%	2.3%	·
Cc1ccccc1CN1CCN(c2nc3ccccc3s2)CC1	0.2	1.6	-7.9	-8.1	-5.5%	14.6%	-8.2%
COc1ccc(NC(=O)Cn2nnc3sc4c(c3c2=O)CC(C)(C)OC4)cc1	5.1	5.3	7.1	3.7	2.0%	-0.7%	-9.9%
Cn1ncc([N+](=O)[O-])c1C(=O)N/N=C/c1ccc(F)cc1	0.2	-0.4	7.2	4.9	1.1%	0.9%	-0.3%
CCOC(=O)c1sc(NC(=O)/C=C/c2ccccc2)nc1C	-5.6	-0.2	-7.8	-2.5	-11.1%	0.6%	-20.6%
Cc1ccc(N2CC(C(=O)Nc3cc(S(=O)(=O)N4CCCCC4)ccc3C)CC2=O)cc1 (stereo not given)	·	0.7	-25.6	·	-3.6%	2.2%	·
O=C(CSc1ncccn1)N1CCc2ccccc2C1	-18.2	0.0	2.8	3.6	-1.4%	-1.2%	-14.8%
COc1cc(NC(=O)Nc2cccc([N+](=O)[O-])c2)cc(OC)c1	-7.2	0.0	1.1	-3.2	·	12.7%	-3.0%
COc1ccc(N=C2CC(C)(C)CC(=O)/C2=C(/O)c2ccccc2)cc1	-1.9	0.4	-1.3	-3.3	·	1.9%	6.1%
COc1cccc(-c2cc(C(F)(F)F)n3nc(N)nc3n2)c1	0.4	0.1	0.6	4.3	?	4.1%	12.4%
CCOC(=O)c1c(C)oc2nc(C)nc(Nc3cc(C)cc(C)c3)c12	·	-0.2	8.6	·	-0.2%	0.1%	·
O=C(c1ccco1)N1CCN(C(=O)C(c2ccccc2)c2ccccc2)CC1	1.3	-0.1	-9.5	3.8	-26.7%	2.6%	11.0%
COc1cc(OC)cc(C(=O)Nc2nc(CC(=O)NCc3ccc(F)cc3)cs2)c1	-25.5	0.8	-3.6	·	-0.9%	12.1%	·
Cc1ccc(C)c2sc(N3CCN(C(=O)C(C)(C)C)CC3)nc12	·	0.9	26.2	·	-1.3%	0.7%	·
O=C(O)C(Cc1ccccc1)N1C(=O)C2CCCCC2C1=O (stereo not given)	4.1	-0.6	24.8	-0.4	·	3.3%	-1.8%
Cc1cccc(Cn2c(COc3ccccc3)nc3ccccc32)c1	·	4.6	27.2	·	1.4%	3.7%	·
O=C(c1cc(C(F)(F)F)cc(C(F)(F)F)c1)N1CCC2(CC1)CCN(c1ccccc1)CC2	·	·	·	-3.6	·	0.0%	16.9%
CC1(C)N=C(N)N=C(N)N1c1ccc(OCC(=O)Nc2ccccc2)c(Cl)c1	·	-0.1	17.5	·	-1.7%	0.4%	·
(listing goes on)
SMILES	TRPV1 PAM	TRPML1 ag	TRPML1 blocker	Menin MLL FP FL	ClpP mod	PINK1 expr mod	Sfp PPTase inh
CCN(CC)S(=O)(=O)c1ccc(NC(=O)C2COc3ccccc3O2)cc1 (stereo not given)	2.1	2.3	10.8	1.1	-1.5%	-2.1%	?
N#C/C(=C\c1ccc(Cl)cc1)c1nc(-c2ccco2)cs1	2.4	0.0	29.0	5.1	?	1.0%	-0.1%
CCN(C[C@H]1N[C@@](Cc2ccccc2)(C(=O)OC)[C@H]2C(=O)N(C)C(=O)[C@@H]12)S(=O)(=O)c1ccccc1	·	-0.3	-9.8	·	1.0%	2.5%	·
Cn1c(N)c(C(=O)COC(=O)/C=C/c2cccc(Br)c2)c(=O)n(C)c1=O	-19.1	0.2	-0.7	·	-1.0%	7.5%	·
C/C(=N\NC(=O)c1ccncc1)c1cccc(NC(=O)c2ccc(C(C)(C)C)cc2)c1	0.5	1.0	-4.2	·	0.2%	-0.8%	14.7%
